Beta apoptosis: blocks beta cell apoptosis; protection from apoptosis, % (no concentration beside the values); INS-1E cytokine-induced death, ATP luminescence, 48 h; percent of positive-control rescue, neutral wells zero; 0.8% of 300,000 active;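 active = all replicates at 75% or more, or half of them and the mean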;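 note: 0% = cytokine-treated negative control wells and 100% = positive control rescue; higher means more ATP so stronger rescue from cytokine killing; wells of about 40 µL received 100 nL stock; the first replicate is given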
Calb FLC: affects C. albicans growth with fluconazole; growth inhibition, % (test concentration not listed); 0.57% of 300,000 active; C. albicans CaCi-2 (fluconazole-resistant clinical isolate) + fluconazole, Alamar Blue growth, 48 h;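 active = most replicates above 75%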;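 note: all wells also contain fluconazole at 8 µg/ml as a sub-toxic cotreatment; 0% = median of DMSO wells and 100% = median of geldanamycin control wells; wells of about 8 µL received 7.5 nL stock; the first replicate is given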
LANA-H2A inh: blocks KSHV LANA binding to histone H2A/H2B | cell-free LANA-H2A/H2B peptide, fluorescence polarization | inhibition, % (no concentration beside the values) | 0.6% of 320,000 active | AID 2629; in the data active = inhibition mostly above about 10%, no sharp cut-off; inactive = mostly below about 6.7%;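 note: stock transfer was 7.5 nL into about 10 µL; 0% = median of vehicle wells and 100% = median of positive control wells; one replicate is shown; the record names a cut of 25% in any replicate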
ALR inh: human ALR oxidase inhibition via reduced H2O2 | purified ALR, DTT oxidation, H2O2 HRP-luminol luminescence | P55789 | 3.8% of 290,000 active | inhibition, % (test concentration not listed);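 active = mean and each replicate at 75% or more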;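 note: stock transfer was 7.5 nL into about 7.5 µL; 0% = neutral wells and 100% = wells with inactivated enzyme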
Target sequence (P55789 whole entry, looked up): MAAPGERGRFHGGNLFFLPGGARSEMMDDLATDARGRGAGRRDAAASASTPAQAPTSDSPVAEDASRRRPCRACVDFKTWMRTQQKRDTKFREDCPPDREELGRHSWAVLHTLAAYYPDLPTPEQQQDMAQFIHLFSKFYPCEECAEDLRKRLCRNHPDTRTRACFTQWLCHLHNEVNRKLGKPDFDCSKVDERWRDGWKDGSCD
Bfl-1 A1 inh: inhibitors of the anti-apoptotic protein A1, read as caspase activation. MEF A1-2A-BIM cells, Caspase-Glo 3/7 luminescence, 3 h; percent of clofoctol response, vehicle zero. caspase activation, % (concentration not given with the values). 0.066% of 330,000 active. AID 2462;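 active = over half of replicate activation scores above 10%, or exactly half above 10 with the replicate mean above 10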;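 note: wells of about 30 µL received 50 nL stock; many hits fall short of the cut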
B2AR ag: human beta-2 adrenergic receptor agonism by FAP; 0.43% of 340,000 active; response, % (no concentration beside the values); Am2.2-beta2AR cells, FAP receptor internalization, flow cytometry; reference of the scale not given here;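 active = response above a set limit, near 3 SD of response in nonfluorescent compounds, cut at about 42% in these data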;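 note: stock transfer was 100 nL into about 11 µL; a reference agonist was the positive control; negative values mostly stem from fluorescent compounds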
Target sequence (P07550 whole entry, looked up): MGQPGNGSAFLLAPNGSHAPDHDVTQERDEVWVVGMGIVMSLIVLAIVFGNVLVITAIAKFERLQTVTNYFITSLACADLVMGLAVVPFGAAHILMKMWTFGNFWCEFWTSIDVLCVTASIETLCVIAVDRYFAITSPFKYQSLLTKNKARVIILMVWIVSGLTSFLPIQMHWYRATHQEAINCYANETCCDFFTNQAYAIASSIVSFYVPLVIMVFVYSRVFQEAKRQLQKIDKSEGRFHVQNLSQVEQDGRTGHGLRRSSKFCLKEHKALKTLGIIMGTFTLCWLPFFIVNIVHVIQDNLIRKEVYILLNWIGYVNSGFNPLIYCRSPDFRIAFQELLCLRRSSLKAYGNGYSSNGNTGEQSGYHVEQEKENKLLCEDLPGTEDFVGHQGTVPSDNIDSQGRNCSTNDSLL
rRNA inh HTS: inhibitors of bacterial rRNA selective over humanized ribosomes; E. coli WT GFP vs humanized-ribosome RFP mutants, fluorescence, 24 h; hits give low values; DMSO median 0, no signal -100; GFP signal change (wild-type ribosome), % (no concentration beside the values); 1.6% of 350,000 active;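 active = significant combined selectivity score with lowered wild-type GFP, culture density cut under 30%, mutant RFP and density less affected; inactive = any of these conditions unmet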; note: one replicate is shown; some compounds called inactive have numbers as strong as hits
T cruzi repl: blocks replication of Trypanosoma cruzi. inhibition, % (concentration not given with the values). 1.4% of 300,000 active. AID 1885. T. cruzi beta-gal in NIH3T3, luminescence, 90 h;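 active = mean inhibition across valid replicates above about 55%, limit read from the data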;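 note: signal also drops with host cell toxicity which is not excluded here; 0% = plate median of DMSO wells and 100% = zero luminescence signal; higher percent means less beta-gal luminescence so fewer parasites; stock transfer was 50 nL into about 50 µL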
rRNA inh HTS OD600: second read-out of rRNA inh HTS, no call of its own (marks repeat the call); OD600 change, %; measured here: OD600 growth;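 optical density of the mix in the first replicate; 0 = DMSO median and -100 = no signal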
rRNA inh HTS RFP: second read-out of rRNA inh HTS, no call of its own (marks repeat the call); RFP signal change, %; measured here: RFP humanized mutant strains;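 first replicate; 0 = DMSO median and -100 = no signal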
Starred values were filed as active, the others as inactive; x = not tested or not shown.

SMILES | Beta apoptosis | Calb FLC | LANA-H2A inh | ALR inh | Bfl-1 A1 inh | B2AR ag | rRNA inh HTS | rRNA inh HTS OD600 | rRNA inh HTS RFP | T cruzi repl
CC(C)C(NS(=O)(=O)/C=C/c1ccccc1)C(=O)NCc1ccc(F)cc1 (configuration not stated) | -5 | -5 | 0.3 | x | -0.6 | 6 | 6 | 3 | -0.3 | 12
Cc1nc2cc(NC(=O)c3ccc(S(=O)(=O)N(C)c4ccccc4)cc3)ccc2o1 | 0 | -8 | 5.6 | 0 | -0.3 | 17 | -3 | -4 | 2.2 | 25
CC(=O)Nc1cccc(NC(=O)c2oc3ccccc3c2C)c1 | 7 | 10 | 1.7 | -2 | 0.8 | x | x | x | x | -7
NS(=O)(=O)c1ccc(CCNC(=O)C2CCN(S(=O)(=O)c3cnc[nH]3)CC2)cc1 | -2 | 7 | -1.9 | 0 | -0.1 | 0 | 11 | 4 | -3.9 | -6
CN1CCN(CCc2nc3cc(NC(=O)COc4ccc([N+](=O)[O-])cc4)ccc3n2C)CC1 | -8 | 8 | -0.4 | -1 | 0.0 | -2 | 4 | 7 | 2.8 | 14
COc1ccc(/C=N/NC(=O)C[n+]2ccccc2)c(OC)c1OC | 0 | -2 | 1.2 | -7 | 0.4 | 9 | x | x | x | -9
COc1ccc(-c2ccc(SCC(=O)NCc3ccco3)nn2)cc1OC | 0 | -1 | -0.1 | x | -0.9 | 1 | x | x | x | -5
Cc1nonc1NC(=O)c1oc2ccccc2c1C | 0 | 0 | 5.9 | -6 | -2.1 | -2 | 3 | 4 | -2.3 | -13
Cc1nn(C)c(C)c1C1C(C#N)=C(N)Oc2n[nH]c(C)c21 (configuration not stated) | -3 | 1 | 7.9 | -2 | -0.2 | 8 | x | x | x | -11
CCNC(=O)NC(=O)C(C)OC(=O)C1CCN(S(=O)(=O)c2ccc(C)c(C)c2)CC1 (configuration not stated) | 0 | -2 | 2.6 | 1 | -0.2 | 2 | 14 | 13 | -1.7 | -5
CCOC(=O)C/C(C)=N/NC(=O)CN(c1ccc(Br)cc1)S(=O)(=O)c1ccccc1 | -6 | -11 | 0.8 | 0 | 2.0 | 1 | x | x | x | 2
CC(=O)Nc1cc(C(=O)N2CCc3ccccc3C2)ccc1Sc1ccc(C)cc1 | 0 | -1 | -2.1 | -84 | 0.5 | 2 | x | x | x | 17
O=C1C(c2ccccc2)C(c2ccccc2)NC(c2ccccc2)C1c1ccccc1 (configuration not stated) | 14 | 4 | 3.5 | x | 1.4 | 9 | x | x | x | 14
COc1ccc(C(=O)Nc2ccccc2-c2nnn(CC(=O)NCc3ccco3)n2)cc1 | x | 2 | -9.6 | -2 | -1.0 | 1 | x | x | x | 5
CCOC(=O)c1c(=O)n(O)c2ccc(C)cc2[n+]1[O-] | -4 | -1 | -7.8 | -17 | 0.3 | 7 | x | x | x | -16
O=C(COC(=O)COc1ccc(Br)cc1)NCc1ccc2c(c1)OCO2 | 3 | x | 3.7 | -1 | -0.4 | -1 | 10 | 7 | -0.9 | x
O=C(CCCc1c[nH]c2ccccc12)N1CCN(c2ccc(N3CCOCC3)nn2)CC1 | 3 | -3 | -2.1 | 90* | 1.5 | -6 | -9 | -15 | -1.4 | -3
O=C(CCCn1c(SCc2cccc([N+](=O)[O-])c2)nc2ccccc2c1=O)NCC1CCCO1 (configuration not stated) | 6 | 5 | -1.9 | -15 | 0.5 | 0 | -9 | -5 | -6.2 | 29
CCN(CC(=O)NCc1ccc(Cl)cc1)C(=O)/C=C/c1ccccc1 | 8 | 13 | -0.9 | -1 | -0.1 | -5 | -6 | -11 | 0.6 | -1
O=C(CSCC(=O)Nc1ccccc1)N/N=C/c1c(O)ccc2ccccc12 | -11 | 113* | 5.0 | 5 | 0.1 | 11 | x | x | x | 14
O=C(c1cccc(C(=O)N2CCc3ccccc32)n1)N1CCc2ccccc21 | 2 | 5 | -0.3 | -2 | 1.0 | -7 | x | x | x | 17
Cc1ccc(S(=O)(=O)N2CCCC2C(=O)Nc2nccs2)cc1 (configuration not stated) | 2 | 0 | -0.5 | x | -0.2 | -6 | x | x | x | 0
S=C(N/N=C/c1cccs1)NC1CC2CCC1C2 (configuration not stated) | x | 27 | -5.9 | 0 | 0.1 | 2 | -18 | -4 | 0.0 | 13
C=CCOc1ccc(/C=C/C(=O)OCC(=O)Nc2c(C)n(C)n(-c3ccccc3)c2=O)cc1 | -1 | -2 | -3.4 | -1 | -0.5 | 2 | -3 | -3 | 1.5 | -1
O=C(O)CCCNC(=O)c1cncc(Br)c1 | 3 | -20 | -3.3 | x | 0.9 | 5 | x | x | x | -15
Later entries:
SMILES | Beta apoptosis | Calb FLC | LANA-H2A inh | ALR inh | Bfl-1 A1 inh | B2AR ag | rRNA inh HTS | rRNA inh HTS OD600 | rRNA inh HTS RFP | T cruzi repl
O=C(CCNC(=O)N1CC(=O)Nc2ccccc21)Nc1ccc(F)c(Cl)c1 | 6 | -1 | 6.9 | -13 | 1.3 | -4 | -6 | 3 | -1.4 | -2
Cc1noc(NS(=O)(=O)c2ccc(NC(=O)CCN3C(=O)c4ccccc4C3=O)cc2)c1C | -7 | 4 | -0.3 | 94* | -0.3 | -1 | 11 | 9 | 0.0 | -18
COc1cccc(CNC(=O)CCCC(=O)NC(C)CCc2ccccc2)c1 (configuration not stated) | -10 | -2 | 2.2 | -5 | 0.3 | -2 | -8 | -11 | -5.1 | 1
CCOC(=O)C1=C(C)NC2=C(C(=O)c3ccccc32)C1c1cccc2ccccc12 (configuration not stated) | 7 | -14 | -1.7 | -4 | -0.2 | 17 | -19* | 1.6* | 5.4* | 29
CCn1cc(C(=O)Nc2cc(C)ccc2C)c(=O)c2ccc(C)nc21 | -4 | -9 | -0.6 | -5 | 0.0 | x | x | x | x | -15
Clc1ccc(C2=NN=C3COc4ccccc4N3C2)cc1 | -1 | 23 | -1.9 | x | 0.1 | -7 | 2 | 3 | -0.5 | -1
Cc1csc(NC(=O)CCC(=O)N(CC(=O)NC2CCCC2)Cc2ccco2)n1 | -5 | 2 | 0.0 | 0 | -0.6 | 3 | x | x | x | 0
CCOc1ccc(S(=O)(=O)NC(=O)c2ccccc2)cc1 | 7 | -2 | 5.1 | -1 | 0.5 | 2 | 16 | 7 | -0.1 | -9
O=C(O)COc1ccc2nsnc2c1Cl | -5 | -4 | 2.3 | -18 | 1.2 | -2 | x | x | x | -3
C=CCN(c1ccc(C(=O)Nc2ccc3c(c2)n(C)c(=O)n3C)cc1)S(C)(=O)=O | x | 2 | -5.5 | -2 | 0.2 | 4 | -9 | -2 | -9.7 | 1
O=C(Cn1nc(-c2ccco2)ccc1=O)Nc1ccc(Cl)c(Cl)c1 | -3 | 42 | -10 | x | -0.3 | -6 | 1 | -2 | 5.4 | 6
S=c1[nH]nc(COc2ccccc2)n1/N=C/c1cccs1 | 6 | -1 | -4.9 | x | 0.9 | -4 | x | x | x | 2
O=C(CS(=O)(=O)c1ccc(F)cc1)Nc1nccs1 | -4 | 6 | 5.0 | -3 | 1.0 | -4 | -3 | 7 | -0.5 | -12
O=C(CCc1nc2ccccc2c(=O)[nH]1)OCCOc1ccc(Cl)cc1 | -10 | -15 | 5.3 | x | 0.7 | 9 | 12 | 11 | 2.1 | -16
COc1ccc(NC(=O)NC2CCCCC2C)cc1 (configuration not stated) | -4 | -28 | -0.7 | 0 | -1.2 | -2 | 14 | 10 | 5.8 | -2
Cc1cc(C)nc(NS(=O)(=O)c2ccc(NC(=O)CSc3nc4ccccc4[nH]3)cc2)n1 | -14 | -1 | -0.2 | 5 | -2.9 | -3 | -16 | -11 | 4.7 | -18
CCOc1ccccc1NC(=O)CCNS(=O)(=O)c1ccc2[nH]c(=O)oc2c1 | 0 | 12 | -4.5 | -5 | 0.1 | 8 | 2 | 1 | -0.9 | -3
O=S(=O)(NCC1OCCc2ccccc21)c1ccc(S(=O)(=O)N2CCOCC2)cc1 (configuration not stated) | -3 | -1 | -0.2 | -5 | -0.8 | 5 | x | x | x | 2
Cc1[nH]c(=S)sc1Cc1ccc(Cl)c(Cl)c1 | -8 | -4 | 2.1 | 96* | 0.3 | x | -40* | -11* | -3.8* | -4
O=C(COC(=O)c1ccccc1)Nc1cccc(S(=O)(=O)N2CCOCC2)c1 | -2 | -24 | 11 | 9 | 0.5 | -8 | -6 | 2 | 2.5 | -15
CN(Cc1cnn(C)c1)C(=O)C1CCC(=O)N(Cc2cccc(C(F)(F)F)c2)C1 (configuration not stated) | -2 | -5 | 2.7 | 11 | 0.3 | -1 | 17 | 14 | 3.0 | -7
COc1ccc(-n2c(/C=C3\C(=O)N(C)c4ccccc43)nc3ccccc3c2=O)cc1 | -10 | -3 | -7.6 | 97* | -0.1 | 13 | 16 | 10 | 0.2 | 7
CCn1c(C(=O)Nc2ccsc2C(=O)OC)cc2sc(Cl)cc21 | -2 | 2 | 0.6 | -9 | 0.5 | -4 | 6 | 8 | 2.7 | 14
O=C(O)C1CCCCC1C(=O)Nc1ccc(Cl)cc1 (configuration not stated) | 13 | 4 | 1.9 | -4 | -1.5 | 5 | 3 | -1 | -2.9 | 1
COc1cc(NC(=O)C(C)C)ccc1NC(=O)c1ccco1 | -3 | -14 | 3.4 | -5 | 2.1 | 0 | 2 | 1 | -2.2 | 4

Pulled one by one from above, four records:
SMILES | Beta apoptosis | Calb FLC | LANA-H2A inh | ALR inh | Bfl-1 A1 inh | B2AR ag | rRNA inh HTS | rRNA inh HTS OD600 | rRNA inh HTS RFP | T cruzi repl
O=C(CS(=O)(=O)c1ccc(F)cc1)Nc1nccs1 | -4 | 6 | 5.0 | -3 | 1.0 | -4 | -3 | 7 | -0.5 | -12
Cc1[nH]c(=S)sc1Cc1ccc(Cl)c(Cl)c1 | -8 | -4 | 2.1 | 96* | 0.3 | x | -40* | -11* | -3.8* | -4
COc1cccc(CNC(=O)CCCC(=O)NC(C)CCc2ccccc2)c1 (configuration not stated) | -10 | -2 | 2.2 | -5 | 0.3 | -2 | -8 | -11 | -5.1 | 1
O=C(O)C1CCCCC1C(=O)Nc1ccc(Cl)cc1 (configuration not stated) | 13 | 4 | 1.9 | -4 | -1.5 | 5 | 3 | -1 | -2.9 | 1

(further entries)
SMILES | Beta apoptosis | Calb FLC | LANA-H2A inh | ALR inh | Bfl-1 A1 inh | B2AR ag | rRNA inh HTS | rRNA inh HTS OD600 | rRNA inh HTS RFP | T cruzi repl
COc1ccccc1N1C(=O)CC(Sc2nc(C)cc(C)n2)C1=O (configuration not stated) | 8 | -9 | -2.1 | 0 | 0.2 | 11 | 11 | 6 | -6.6 | -6
CCN1CCN(Cc2ccc(NC(=O)Nc3ccccc3Cl)cc2)CC1 | 1 | -2 | -0.8 | -2 | -0.8 | -3 | 2 | -5 | -4.1 | -26
c1ccc(N=Nc2ccc3cccccc2-3)cc1 | x | 5 | 5.4 | -11 | -0.3 | -4 | -20* | 2.8* | 4.6* | -3
O=C(CSc1ccc(-c2ccc(Br)cc2)nn1)NC1CCCC1 | -5 | -5 | 1.0 | 0 | -0.2 | 10 | 8 | 14 | 2.1 | 15
CCOC(=O)c1c(NC(=O)COC(=O)CCOc2ccc(C)cc2)sc(C(=O)N(C)C)c1C | 2 | -4 | -1.4 | -3 | -0.4 | -2 | 6 | 11 | -0.8 | -2
COc1ccc(CNCCC(c2ccc(OC(C)C)cc2)c2ccccc2OC)cc1OC (configuration not stated) | 18 | 3 | 1.9 | -8 | 0.5 | 12 | -52 | -78 | -15 | 25

A portion of the library; rates above refer to the full screens.
